Source: PubChem BioAssay
B2AR ag: beta2AR agonists driving receptor internalization, primary screen, cell-based, FAP fluorogen, flow cytometry | 0.43% of 340,000 active | Am2.2-beta2AR cells; reference of the scale not given here | response, % (concentration not given with the values) | Beta-2 adrenergic receptor (Homo sapiens), P07550;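 active = response above a set limit, near 3 SD of response in nonfluorescent compounds, cut at about 42% in these data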;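 note: stock transfer was 100 nL into about 11 µL; a reference agonist was the positive control; negative values mostly stem from fluorescent compounds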
Target sequence (P07550 whole entry, looked up): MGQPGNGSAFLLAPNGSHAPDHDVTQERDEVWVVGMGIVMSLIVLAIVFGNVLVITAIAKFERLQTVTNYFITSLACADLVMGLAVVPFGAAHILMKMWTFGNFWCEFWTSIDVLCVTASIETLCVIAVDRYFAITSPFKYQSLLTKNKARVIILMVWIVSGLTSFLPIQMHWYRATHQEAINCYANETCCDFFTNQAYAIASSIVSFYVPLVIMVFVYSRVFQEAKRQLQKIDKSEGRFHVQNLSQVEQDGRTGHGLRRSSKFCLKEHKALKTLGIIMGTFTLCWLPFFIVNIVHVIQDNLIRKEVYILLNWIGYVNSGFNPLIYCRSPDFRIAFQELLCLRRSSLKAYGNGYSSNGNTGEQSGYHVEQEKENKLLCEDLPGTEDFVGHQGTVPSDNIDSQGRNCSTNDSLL
A1 inh: caspase 3/7 activation in MEF A1-2A-BIM cells, primary screen, A1 inhibitor project, cell-based, luminescence, HTS; Caspase-Glo 3/7 luminescence, 3 h; percent of clofoctol response, vehicle zero; caspase activation, % (concentration not given with the values); 0.066% of 330,000 active;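 active = over half of replicate activation scores above 10%, or exactly half above 10 with the replicate mean above 10; inconclusive = replicate mean below 10 yet half the replicates above 10; inactive = over half of replicates below 10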;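 note: wells of about 30 µL received 50 nL stock; many hits fall short of the cut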
LANA-H2A inh: blockers of LANA interaction with H2A/H2B – biochemical, FP readout, HTS, primary screen; Protein LANA1 (Human herpesvirus 8 type P (isolate GK18)), Q9QR71; cell-free LANA-H2A/H2B peptide, fluorescence polarization; inhibition, % (no concentration beside the values); 0.6% of 320,000 active; AID 2629, 2010; in the data active = inhibition mostly above about 10%, no sharp cut-off; inactive = mostly below about 6.7%;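 note: stock transfer was 7.5 nL into about 10 µL; 0% = median of vehicle wells and 100% = median of positive control wells; one replicate is shown; the record names a cut of 25% in any replicate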
Beta apoptosis: inhibitors of cytokine-induced beta cell apoptosis, primary screen, luminescence. INS-1E cytokine-induced death, ATP luminescence, 48 h; percent of positive-control rescue, neutral wells zero. protection from apoptosis, % (no concentration beside the values). 0.8% of 300,000 active;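 active = all replicates at 75% or more, or half of them and the mean; inconclusive = half reach 75% but not the mean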;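 note: 0% = cytokine-treated negative control wells and 100% = positive control rescue; higher means more ATP so stronger rescue from cytokine killing; wells of about 40 µL received 100 nL stock; the first replicate is given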
RanGTP-Impb inh: inhibitors of RanGTP-importin-beta interaction, primary screen, biochemical, FRET, CFP-Ran, YFP-importin-beta, homogeneous; inhibition, % (no concentration beside the values); 1.1% of 300,000 active; cell-free CFP-Ran/YFP-importin-beta FRET ratio; Ran GTPase (GTP-bound) - importin-beta complex; AID 2216, 2009;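 active = most replicates above 15%; inconclusive = exactly half above 15%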;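 note: 0% = DMSO wells and 100% = Ran loaded with GDP instead of GTP; wells of about 40 µL received 100 nL stock; the first replicate is given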
Calb FLC: C. albicans growth inhibition with fluconazole, primary screen, CaCi-2 strain, Alamar Blue fluorescence | C. albicans CaCi-2 (fluconazole-resistant clinical isolate) + fluconazole, 48 h | growth inhibition, % (test concentration not listed) | 0.57% of 300,000 active | AID 1979, 2009;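 active = most replicates above 75%; inconclusive = exactly half above 75%; inactive = most below 75%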;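 note: all wells also contain fluconazole at 8 µg/ml as a sub-toxic cotreatment; 0% = median of DMSO wells and 100% = median of geldanamycin control wells; wells of about 8 µL received 7.5 nL stock; the first replicate is given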
UCH37 DUB inh: inhibitors of human UCH37 deubiquitinase, primary screen, biochemical, Ub-AMC cleavage, fluorescence; 0.33% of 330,000 active; Ubiquitin carboxyl-terminal hydrolase isozyme L5 (Homo sapiens), Q9Y5K5; inhibition, % (concentration not given with the values); AID 588478, 2011; purified proteasome/UCH37;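 active = mean of two replicates above 20%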;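 note: 0% = compound-free wells with enzyme and 100% = wells lacking proteasome; stock transfer was 100 nL into about 20 µL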
Target sequence (Q9Y5K5 whole entry, looked up): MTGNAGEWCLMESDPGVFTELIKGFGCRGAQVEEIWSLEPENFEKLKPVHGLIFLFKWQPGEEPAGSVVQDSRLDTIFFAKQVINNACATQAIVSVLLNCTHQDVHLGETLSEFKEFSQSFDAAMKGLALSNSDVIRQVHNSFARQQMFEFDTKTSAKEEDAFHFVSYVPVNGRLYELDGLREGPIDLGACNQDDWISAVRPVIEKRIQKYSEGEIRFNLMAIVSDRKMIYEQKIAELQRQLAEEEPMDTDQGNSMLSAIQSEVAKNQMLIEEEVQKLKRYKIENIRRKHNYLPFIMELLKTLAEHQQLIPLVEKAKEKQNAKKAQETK
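Material: Human UCH37 enzyme supplied as purified proteasome complex | Schedule: 30 min preincubation with enzyme, 25 min cleavage at room temperature | Detection: AMC fluorescence 355/460 nm | Measure: % inhibition of Ub-AMC cleavage fluorescence | Controls: Wells without proteasome as full block, compound-free enzyme plus substrate as uninhibited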
T cruzi repl: inhibitors of intracellular T. cruzi growth, primary screen, luminescence, NIH3T3 host cells; AID 1885, 2009; T. cruzi beta-gal in NIH3T3, 90 h; 1.4% of 300,000 active; inhibition, % (test concentration not listed);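 active = mean inhibition across valid replicates above about 55%, limit read from the data; inconclusive = mean below that limit but half or more replicates reach it; inactive = mean below it, under half of replicates reach it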;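 note: signal also drops with host cell toxicity which is not excluded here; 0% = plate median of DMSO wells and 100% = zero luminescence signal; higher percent means less beta-gal luminescence so fewer parasites; stock transfer was 50 nL into about 50 µL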
Numbers without * were called inactive; i = inactive; ? = inconclusive; . = not tested or not shown; & = joins results of further samples. This is a random part of the collection (roughly 4.3% active in at least one column).

SMILES	B2AR ag	A1 inh	LANA-H2A inh	Beta apoptosis	RanGTP-Impb inh	Calb FLC	UCH37 DUB inh	T cruzi repl
O=C1NC(c2ccccc2)C(C(=O)c2cccs2)C(O)(C(F)(F)F)N1 (stereo unspecified)	-5	0.1	5.8	0	1.0	.	.	-12
CCCCOc1ccc(CCC(=O)N/N=C/c2ccco2)cc1	-14	?	2.0	.	-0.1	12	.	-13
COc1ccc(CNC(=O)C2CCCN(c3nc4ccccc4o3)C2)c(OC)c1 (stereo unspecified)	-14	0.2	-2.2	5	0.5	-23	1.3	5
O=C(COC(=O)CCOc1ccccc1)Nc1ncc(Cl)cc1Cl	-4	0.5	-2.6	0	0.6	-16	-51	-5
Cc1nnc(NC(=O)CSc2nnc(C(C)NC(=O)c3ccccc3F)n2C)s1 (stereo unspecified)	1	-0.8	-4.3	-8	0.0	-5	.	-4
CCCCCC(=O)NC(=S)Nc1ccc(Cl)cn1	-15	0.3	3.8	-5	1.9	-27	-1.3	3
Cc1cc(NC(=O)C(C)SCC(=O)OC(C)C(=O)Nc2ccccc2C)no1 (stereo unspecified)	3	1.6	-1.8	1	3.9	-10	1.0	-11
Cc1ccc(NC(=O)CN(C)C(=O)c2cccc(S(=O)(=O)NCc3cccs3)c2)cc1	-4	0.4	0.6	-2	.	.	1.3	.
COc1ccc(CCNC(=O)CCC(=O)N2CCOc3ccccc32)cc1OC	-2	-0.2	-3.4	-2	-0.5	-11	-0.8	-5
O=C(N/N=C/c1cnc(N2CCOCC2)s1)c1ccccc1	-4	-0.2	-3.5	-1	2.5	-2	.	-8
O=C(Nc1ccc(N2CCOCC2)cc1)c1ccc(Cl)nc1	1	-3.4	6.6	5	4.3	-4	2.2	-6
O=C(COC(=O)c1ccc(Br)cc1)NCCc1ccccc1	-7	-0.4	1.3	-1	5.1	9	3.2	-1
CCc1ccc(S(=O)(=O)NC2CCCCNC2=O)cc1 (stereo unspecified)	1	1.2	-8.5	.	-4.4	1	4.4	1
COC(=O)CS(=O)(=O)c1ccsc1C(=O)Nc1ccc(F)cc1	3	0.1	-5.1	-5	-2.0	-8	1.9	2
Cc1cc(C(=O)NCC(=O)OCC(=O)N(C(C)C)C(C)C)ccc1[N+](=O)[O-]	3	-0.1	0.9	-6	7.2	-8	1.3	-34
Cc1cccc(NC(=O)NNC(=O)c2ccccn2)c1	3	0.2	1.6	-3	.	.	-0.4	.
CCOC(=O)CC(=O)Nc1nnc(CC(C)C)s1	6	-0.3	-2.2	-2	-0.4	-2	0.3	-9
CCN(CC)CCn1c(SCC(=O)Nc2ccc(F)cc2)nc2c(sc3ccccc32)c1=O	.	0.1	1.7	-20	7.8	-8	-62	10
Cn1nc(-c2ccccc2)c(C(=O)NCC(=O)O)c1Cl	2	-0.2	1.9	5	-0.2	-7	4.0	-9
O=C(NC1CCCCC1)c1ccc(COCC(F)(F)F)o1	-5	0.1	-4.6	-5	-2.3	-2	1.0	0
Cc1cc(-c2n[nH]c(=S)n2/N=C/C(Br)=C/c2ccccc2)n[nH]1	15	1.4	0.0	85*	1.1	45	.	2
COc1ccc(CN(C)CC(=O)N2CCc3ccccc3C2)cc1	2	-0.5	5.0	-7	-0.9	6	1.3	3
O=C(CN(C1CCCCC1)S(=O)(=O)c1ccccc1)NCc1ccco1	-5	0.2	-1.3	-2	2.9	35	1.3	8
O=C(COC(=O)c1ccc2ccccc2n1)Nc1cccc(S(=O)(=O)NC2=NCCCCC2)c1	7	0.0	-3.8	-2	-6.9	-10	2.5	-11
COc1ccccc1OCCC(=O)OCC(=O)Nc1cc(S(=O)(=O)N(C)C)ccc1Cl	-2	0.4	-2.1	.	-1.0	-1	2.9	-16
O=S(=O)(c1cccc(-c2cn3cc(Cl)ccc3n2)c1)N1CCOCC1	-8	0.2	5.4	1	-7.1	16	-11	17
CCN(CC)C(=O)Cn1c(=O)n(-c2ccccc2)c(=O)n1CC(=O)N(CC)CC	-3	2.6	3.5	-2	2.6	10	0.1	-8
O=C1C(=O)N(Cc2ccco2)C(c2cccs2)/C1=C(\O)c1cccc([N+](=O)[O-])c1 (stereo unspecified)	-1	3.5	0.8	-5	-3.8	0	14	-21
O=C(NC1=NCCS1)c1nc(-c2ccccc2)n(-c2ccccc2)n1	-8	?	-2.7	-5	-1.5	-5	0.9	-9
Cc1ccccc1NC(=S)N1CCCC1	2	-0.3	2.1	2	-0.8	-1	1.0	-14
C/C(CC(=O)Nc1ccc(Cl)c(C(F)(F)F)c1)=N\NC(=O)c1cc2ccccc2cc1O	1	0.1	0.2	4	-4.9	3	.	-22
COc1ccc(/C(C)=N/N=C2/NC(=O)CC(C(=O)O)S2)cc1F (stereo unspecified)	-8	0.7	-0.9	-6	0.9	-6	.	7
O=C(CNc1ccc2ccccc2c1)N/N=C/c1cc2ccccc2nc1Cl	1	-0.3	i	0	7.7	10	.	19
CCN1CCN(Cc2ccc(NC(=O)Nc3ccccc3OC)cc2)CC1	7	-0.3	-1.9	-2	-2.5	-7	4.2	-10
CC(NCC(=O)Nc1ccccc1C(=O)NC1CC1)c1ccc(S(C)(=O)=O)cc1 (stereo unspecified)	-1	1.7	3.3	-2	.	.	-0.8	.
Cc1cccc(OCCn2c(-c3ccco3)nc3ccccc32)c1	4	0.8	-8.0	-6	-0.8	0	-1.4	20
Cc1c(N=C2Nc3cccc4cccc2c34)c(=O)n(-c2ccccc2)n1C	10&4	0.0	1.2	.	4.9	0	3.5&0.7	23
Cc1ccc(C)c(NC(=S)N/N=C2\CCc3ccccc32)c1	8	1.4	2.9	8	-3.8	3	.	29
Cc1ccc(NC(=O)Cn2cnc3ccccc32)cc1C	16	-0.5	1.9	23	-1.5	-13	2.7	-35
CCOC(=O)c1cnn(-c2ncnc3c2cnn3Cc2ccccc2)c1N	.	-0.2	-0.8	5	4.6	-22	4.7	-5
O=C(CSc1nnc(-c2ccco2)n1CC1CCCO1)NC1CCCC1 (stereo unspecified)	-3	0.1	3.2	-4	0.9	-1	1.3	-6
CCOc1cc(C(C#N)N2CCOCC2)ccc1OC (stereo unspecified)	4	0.2	2.6	0	-1.5	1	-2.3	-12
O/N=C/CCn1c(=S)sc2ccccc21	5	-0.4	6.3	-8	1.0	5	.	8
C=C(C)CSc1ncc(-c2cccc(C(F)(F)F)c2)cn1	-2	-0.1	-13	-4	3.7	3	3.9	18
Cc1noc(C)c1-c1nc(CS(=O)(=O)c2ccccc2)no1	-3	0.7	-0.4	.	-1.1	-6	2.6	-17
CC1=CCC2C(=O)N(c3cccc(C(=O)NC(C)c4ccccc4)c3)C(=O)C2C1 (stereo unspecified)	4	1.2	-1.7	-9	-3.2	-6	5.8	-3
COc1ccc(NC(=O)Nc2ccc3c(c2)C(=O)N([C@@H](C)CO)C[C@@H](C)[C@@H](CN(C)S(=O)(=O)c2cccs2)O3)cc1	0	0.1	-5.8	-11	.	.	-1.1	.
COC(=O)C[C@H]1c2cc(C(F)(F)F)ccc2S(=O)(=O)N1c1ccc(N(C)C)cc1	3	2.0	-0.8	0	-2.9	-1	-0.6	-5
c1ccc(-n2cnnc2SCc2cn3ccsc3n2)cc1	-15	-0.3	-1.0	.	-3.7	-4	0.2	-8
Cc1cc(C(=O)N/N=C/c2cn[nH]c2-c2ccccc2)cs1	7	0.5	3.3	.	1.0	20	.	-12

(cont.)
SMILES	B2AR ag	A1 inh	LANA-H2A inh	Beta apoptosis	RanGTP-Impb inh	Calb FLC	UCH37 DUB inh	T cruzi repl
CCCn1c(=O)c2ccccc2n2c(SCC(=O)N3CCc4ccccc4C3)nnc12	-14	-0.9	-1.1	0	6.4	16	2.8	13
COc1ccc(SCCN2CC[C@@H](C)CCC2=O)cc1	-1	0.6	2.2	-5	.	.	-3.3	.
O=C(CCN1C(=O)c2ccccc2C1=O)NNC(=O)c1ccc(Cl)cc1Cl	1	0.9	2.0	-3	5.5	4	1.8	1
COc1ccc(Cl)cc1NC(=O)NCc1ccco1	-5	0.2	5.0	-1	1.9	8	1.1	-5
O=C(O)c1ccc(/C=N/Nc2nc3ccccc3[nH]2)cc1	26	-6.6	3.2	7	-2.1	6	.	3
CCCS(=O)(=O)c1ccc(COC(=O)Cc2ccc([N+](=O)[O-])cc2)cc1	-10	0.3	2.3	-3	4.4	0	1.4	2
COc1ccccc1S(=O)(=O)Cc1ccc(C(=O)NCCN2CCCCCC2)o1	-8	0.5	-1.0	-1	-1.9	0	4.0	-3
Cc1cc(C)cc(N(C(=O)c2csnn2)C(C(=O)NC(C)(C)C)c2ccncc2)c1 (stereo unspecified)	-2	1.2	0.0	-9	1.0	9	1.0	-8
Cc1ccn(C(C)CC(=O)Nc2ccc(-c3ccno3)cc2)n1 (stereo unspecified)	-4	0.4	4.2	1	-2.2	-1	.	-18
COC(=O)c1c(-c2ccccc2OC)sc2ccccc12	-12	1.4	4.5	-1	.	.	2.2	.

Looked up above.
O=C(CCN1C(=O)c2ccccc2C1=O)NNC(=O)c1ccc(Cl)cc1Cl in UCH37 DUB inh reads 1.8
COc1ccc(SCCN2CC[C@@H](C)CCC2=O)cc1 in UCH37 DUB inh reads -3.3
CCCS(=O)(=O)c1ccc(COC(=O)Cc2ccc([N+](=O)[O-])cc2)cc1 in LANA-H2A inh reads 2.3
CCCn1c(=O)c2ccccc2n2c(SCC(=O)N3CCc4ccccc4C3)nnc12 in RanGTP-Impb inh reads 6.4
COc1ccc(Cl)cc1NC(=O)NCc1ccco1 in Calb FLC reads 8

Returning to the listing; the two compounds before the break are reprinted first.
SMILES	B2AR ag	A1 inh	LANA-H2A inh	Beta apoptosis	RanGTP-Impb inh	Calb FLC	UCH37 DUB inh	T cruzi repl
Cc1ccn(C(C)CC(=O)Nc2ccc(-c3ccno3)cc2)n1 (stereo unspecified)	-4	0.4	4.2	1	-2.2	-1	.	-18
COC(=O)c1c(-c2ccccc2OC)sc2ccccc12	-12	1.4	4.5	-1	.	.	2.2	.
CC1CN(S(=O)(=O)c2csc(C(=O)Nc3ccccc3)c2)CC(C)O1 (stereo unspecified)	-4	-0.3	3.1	0	-4.0	7	2.8	0
COc1ccc(C)cc1NC(=O)CCCN1C(=O)CCC1=O	15	0.9	1.0	1	-1.5	18	0.1	-6
CC(NC(=O)CN(C)CC(=O)Nc1ccc(Cl)c(C(F)(F)F)c1)c1ccccc1 (stereo unspecified)	4	-0.1	7.6	9	-1.1	.	1.4	-15
O=C(c1ccc(-n2cccn2)cc1)N1CCc2ccccc2C1	-18	-1.4	-2.7	-1	1.5	-5	5.0	2
Cc1ccc(S(=O)(=O)NC(C)(C)CSc2ccccn2)cc1	-5	0.7	-1.0	-8	-0.8	-18	2.8	10
Cc1ccc(C)c(N2CC(O)(c3cccs3)[N+]3=C2CCCC3)c1 (stereo unspecified)	-1	-0.5	-1.5	7	-4.0	-18	4.7	-21
